Screens as filed in PubChem.
Tg IFNy HTS: inhibitors of Toxoplasma gondii growth with IFN-gamma | Toxoplasma gondii growth in IFN-gamma-treated host cells; stronger effect = lower value; reference of the scale not given here | activity change, negative = inhibition, %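 (about 20 µM by stock and volumes)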 | hit rate 3.8% among 69,000 | AID 1259416;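 active means below -70%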;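 further: host cells are HeLa cells infected with Toxoplasma gondii; parasite growth read as luciferase light; one replicate is shown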
Active calls of the source: *; i = inactive; & = joins results of further samples. A portion of the library (hit frequency here may not be typical).

SMILES | Tg IFNy HTS
C=CCOCC1CCC2C1OCCN2Cc1ccc(C)s1 (stereo unspecified) | 0.8
CCC(=O)N1CCC2(CC1)Nc1cc(F)ccc1-n1cccc12 | 42.0
CC(C)CN(C)C(=O)c1ncn2c1CN(CC(=O)N(C)C)S(=O)(=O)c1ccccc1-2 | -34.5
O=C(c1cc2cccnc2n(Cc2ccc(F)cc2)c1=O)N1CCOCC1 | -2.5
COc1ccc(C(NC(=O)Cn2[nH]c(C)c(C)c2=O)c2ccccc2)cc1 (stereo unspecified) | 5.6
C=CCOCC12CCCOC1CCN(c1nnc(C)s1)C2 (stereo unspecified) | -3.5
CC(=O)c1c(C(C)=O)c(C)n(-c2ccc(C)c(NC(=O)c3ccco3)c2)c1C | 12.8
O=c1c2cccnc2ncn1CCCN1CCN(c2cccc(Cl)c2)CC1 | 8.8
Cc1ccsc1CCNC(=O)CN1C(=O)CCc2cc(S(=O)(=O)N3CCC(C)CC3)ccc21 | -33.5
CCOc1ccccc1CNC(=O)Cn1ncc2c(N3CCCCC3)ncnc21 | -39.6
CN(C(=O)COCC1CCCO1)C1CCCCCC1 (stereo unspecified) | 8.0
N#Cc1ccc(-c2ccc3c(c2)[C@@H]2[C@@H](CCN2C(=O)C2CCCCC2)[C@H](CO)N3)cc1 | -62.8

Next section; the last 3 above are carried over.
SMILES | Tg IFNy HTS
CCOc1ccccc1CNC(=O)Cn1ncc2c(N3CCCCC3)ncnc21 | -39.6
CN(C(=O)COCC1CCCO1)C1CCCCCC1 (stereo unspecified) | 8.0
N#Cc1ccc(-c2ccc3c(c2)[C@@H]2[C@@H](CCN2C(=O)C2CCCCC2)[C@H](CO)N3)cc1 | -62.8
CCC(CO)N(Cc1ccccn1)C(=O)c1ccc(=O)[nH]c1 (stereo unspecified) | -3.0
CNC(=O)NCC1CCC2(CCN(c3nncs3)CC2)CO1 (stereo unspecified) | 11.0
O=C(c1cscn1)N1CC2CN(Cc3cccc(Cl)c3)C2C1 (stereo unspecified) | 3.5
COCCn1c2c(ccc1=O)CC(NCc1nccs1)CC2 (stereo unspecified) | 0.7
O=C(c1cncc(N2CCCC(N3CCCC3=O)C2)n1)N1CCCCC1 (stereo unspecified) | -2.8
CC(C)(Oc1ccc(C2CC2(Cl)Cl)cc1)C(=O)O (stereo unspecified) | 9.2&10.7
Cc1ccn2c(C(=O)N3CCCC(Nc4cccc(F)c4)C3)nnc2n1 (stereo unspecified) | 3.4
CCOc1ccc(-c2nc(Cn3nnc(C(=O)Nc4cc(F)ccc4C)c3C)c(C)o2)cc1 | 73.0
O=C(NC[C@@H]1[C@H](c2ccccc2)[C@@H](CO)N1C(=O)Cc1ccncc1)C1CCC1 | 16.5
O=C(c1cnccn1)N1CC(=O)N2[C@H](C1)[C@@H](c1ccc(/C=C/c3ccccc3)cc1)[C@@H]2CO | -20.7
COc1ccc(C(=O)Nc2ccccc2Sc2nc3ccc(Cl)cc3s2)cc1 | 23.5
O=C(c1cn[nH]n1)N(CCCO)Cc1cccnc1 | 2.3
CCc1ccc(C2CC(=O)c3c(ccc4ccccc34)N2)cc1 (stereo unspecified) | 21.0
COC(=O)CN1CCN(c2nc(C(C)(C)C)nc3c2cnn3C)C(C)C1=O (stereo unspecified) | -4.6
COC(=O)c1ccccc1NC(=O)c1nc(Nc2ccc(Cl)cc2)c2ccccc2n1 | -67.0
CCc1cc2c3c(c(=O)oc2cc1O)CCCC3 | 11.4
CCCc1nnc(SCC(=O)NC2CC3CCC2C3)o1 (stereo unspecified) | -13.6
CCOc1ccc(OCc2ccc(C(=O)Nc3cccc(C)n3)o2)cc1 | 18.2
O=C1NCCN2CCN(S(=O)(=O)c3ccc(Cl)cc3Cl)CC12 (stereo unspecified) | 6.2
CN(C)c1ccc(Br)c(F)c1C#N | -32.8
CN1C[C@H](NC(=O)c2cccc(NCc3ccc(F)cc3)c2)C[C@H]1CO | -6.4
Cc1ccc(S(=O)(=O)Oc2ccc(OS(=O)(=O)c3ccc(C)cc3)cc2)cc1 | -51.6
CCc1cc(C(=O)c2ccc(OC)cc2)c(NC(=O)CN2CCOCC2)s1 | -8.0
CCCNC(=O)N1[C@H](CO)[C@@H]2c3ccccc3N(C(=O)Nc3cccc(Cl)c3)C[C@@H]21 | 7.5
O=C(c1nc2c(s1)CCCN2C(=O)C1CC1)N1CCOCC1 | 72.8
Cc1ccc(C(=O)c2c(-c3ccccc3)cc(-c3ccccc3)c3c2C(=O)CCC3)cc1 | -59.9
CCC1c2ccsc2CCN1Cc1ccc2c(c1)n(C)c(=O)n2C (stereo unspecified) | 30.0
Cc1ccc(-c2oncc2-c2nnnn2-c2ccc(C)cc2)cc1 | -54.9
CCOCC(=O)NCCc1sc(-c2cccc(F)c2)nc1C | 61.8
CCN1CCC2(CCC1=O)CC(NC(=O)c1ccncc1)c1ccccc1O2 (stereo unspecified) | -9.5
COc1cccc(F)c1-c1ccc(C(O)CN2CCOCC2)cc1 (stereo unspecified) | -44.2
Cc1cc(C)c(NC(=O)C(=O)NCCc2csc(-c3ccc(F)cc3)n2)c(C)c1 | -65.6
COC(=O)c1cccc(NC(=O)N2CCC3(CC2)Nc2ccccc2-n2cccc23)c1 | 182.6
O=C(Cn1nnc(-c2ccccc2NC(=O)c2ccccc2)n1)NC1CCCCC1 | -4.0
Cc1ccc(-c2noc(-c3c(O)c4ccc(F)cc4n(C)c3=O)n2)cc1C | 87.9
COc1ccc(-c2nc(Cc3noc(Cc4cccc(F)c4)n3)c(C)o2)cc1 | 58.8
NC1CCCN(C(=O)c2cccc(-c3ccc(F)cc3)c2)CC1 (stereo unspecified) | 3.3
CN(C)C(=O)CC1CC2(CCN(S(=O)(=O)C3CC3)CC2)c2ccccc21 (stereo unspecified) | 4.0
CC(=O)Nc1ccc(NC(=O)CN2C(=O)CCc3cc(S(=O)(=O)N4CCC(C)CC4)ccc32)cc1 | 23.0
CC1(C)Cc2cc(-c3cncn3CCNC3CCS(=O)(=O)C3)ccc2O1 (stereo unspecified) | 2.5
CCn1cnc2cc(NC(=O)c3cc(Cn4nc(C)cc4C)nc4ccccc34)ccc21 | -48.2
O=C(C[C@H]1CC[C@@H]2NC[C@H](O)COC[C@H]2O1)NCCN1CCCCC1 | 15.2
COc1ccc(-c2nc(Cc3noc(-c4ccccc4F)n3)c(C)o2)cc1 | -113.2*
Cc1oc(-c2cccc(Cl)c2)nc1CN1CCN(C(=O)Nc2ccccc2C(F)(F)F)CC1 | -1.0
CCCCN(Cc1ccco1)c1nc(-c2ccc(OC)cc2)nc2ccccc12 | -0.5
Cc1noc(C)c1NC(=O)N1C[C@@H](O)COC[C@H]2O[C@@H](CC(=O)N[C@H]3CCN(Cc4ccccc4)C3)CC[C@@H]21 | -4.0
CCN1CC2CN(C(=O)NCc3ccccc3)CC(C1)O2 | 290.6
CN(C)C(=O)COC[C@@]12COC[C@@H]1CN(Cc1cnn(C)c1)C2 | -3.5
Nc1ccc(-c2ccc(C3CCCN3C(=O)COCCN3CCCC3=O)nc2)cn1 (stereo unspecified) | 2.8
Cc1cccc(C)c1NC(=O)CN1CCCCCC1 | 4.4
CN1[C@@H]2c3ccc(/C=C/c4ccccc4)c(=O)n3C[C@H]1[C@H](CO)[C@H]2C(=O)NC1Cc2ccccc2C1 | -41.2
COc1cccc(-c2ccc(C(=O)N3CCC4(CCCO4)CC3)o2)c1 | 356.9
COCc1nnc2n1CCN(C(=O)c1ccn[nH]1)C2 | 94.9
Cc1cccc(-c2ncc(CN(C)Cc3ccc4nsnc4c3)cn2)c1 | -40.2
CCOC(=O)c1[nH]c(C)c(CN(C(=O)c2cc3ccc(OC)cc3[nH]2)C2CCCCC2)c1C | i
c1ccc(-c2ccc(-c3cnc(-c4ccncc4)s3)cc2)cc1 | 50.6
CN(C)C(=O)[C@@H]1C[C@@H]2OCC[C@@H]2N(Cc2ccc3ccccc3n2)C1 | -0.2
CCCNC(=O)c1nc2c(o1)CN(C(=O)CN(C)C)C2 | -4.3
Cn1cccc1CN1CCC2(CCC(=O)N2Cc2ccncc2)CC1 | -12.3
CC(C)Oc1ccc(C(CC(=O)O)C(C)C)cc1 (stereo unspecified) | 35.7

The list continues:
SMILES | Tg IFNy HTS
c1ccc(-c2cc3n(n2)c2cc(-c4ccccc4)nn2c2cc(-c4ccccc4)nn32)cc1 | -37.6
CCS(=O)(=O)N1[C@H](C#N)[C@@H](c2ccc(C#CCC3CCCC3)cc2)[C@@H]1CO | 11.0
Cc1nc(-c2cccc(F)c2)sc1CCNS(=O)(=O)c1ccc(F)cc1F | 47.1
c1cncc(COC2CCN(Cc3ccc(-n4ccnc4)cc3)CC2)c1 | -41.2
O=C(c1ccc2c(c1)OCO2)N1C[C@@H]2[C@H](c3ccccc31)[C@@H](CO)N2C(=O)CC1CC1 | 3.1
O=S(=O)(NCCc1csc(-c2ccc(F)cc2)n1)c1cccc(F)c1 | -15.5
CCc1cc(CN(C)C(=O)c2cn[nH]n2)on1 | 13.0
COc1ccc(-c2c(C(=O)Nc3ccccc3)c(C)[nH]c(=S)c2C#N)cc1 | 72.0
COc1ccc(S(=O)(=O)N2C[C@@H](O)COC[C@@H]3O[C@H](CC(=O)N[C@@H]4CCN(Cc5ccccc5)C4)CC[C@H]32)cc1 | -17.1
O=C1CN(S(=O)(=O)NCc2ccccc2)CCN1C1CCCC1 | 30.5
O=c1[nH]c(=O)c2cc(S(=O)(=O)Nc3cccc(-c4ccc(F)cc4)c3)ccc2[nH]1 | 19.1
Cc1c(-c2ccn[nH]2)cnn1-c1c(Cl)cc(Cl)cc1Cl | 18.0

(further entries)
structure	Tg IFNy HTS
CCOC(=O)N1CCC2(CC1)N=C(c1ccccc1O)CC(c1cc(Cl)ccc1O)N2 (stereo unspecified)	-36.3
Cc1cc(C(F)F)n2ncc(C(=O)N3CCC(O)(Cn4ccc5ccncc54)CC3)c2n1	-30.7
Cc1cc(C)c2c(=O)n(Cc3nc(-c4ccc(Cl)cc4)oc3C)c(=O)n(-c3ccccc3)c2n1	0.5
O=C(Cn1ncc2c(N3CCN(c4ccccc4)CC3)ncnc21)N1CCN(c2ccccc2)CC1	-44.5
c1cc2c(cc1CNc1nc(C3CCCC3)nc3c1CNC3)OCO2	83.4
O=C(NCCOC(=O)c1ccc(S(=O)(=O)N2CCOCC2)cc1)c1cccnc1	9.0
Cc1cnc(N2CC3C[C@H](C(=O)N4CCN(C)CC4)N(C)C3C2)nc1 (stereo partly specified)	3.1
CCc1ccccc1S(=O)(=O)N1CCC2(CC1)Nc1cc(C)ccc1-n1cccc12	-1.9
C[C@@H]1CN([C@@H](C)CO)S(=O)(=O)c2ccc(C#Cc3ccccc3F)cc2O[C@H]1CN(C)C(=O)Cc1cccnc1	-90.3*
CN1CCN(c2nccc(C(F)(F)F)n2)CC1C(=O)O (stereo unspecified)	2.0
CSCC[C@@H](CO)NC(=O)c1cccc2ccnn12	-1.3
CC(C)Cc1cc(CNC(=O)c2scc3c2OCCO3)no1	-49.4
CCCn1cc(C(=O)N2Cc3cnn(CCO)c3C2)c(C)n1	111.7
Cc1nc2cc(C3CCCN(C(=O)C(C)C)C3)[nH]n2c(=O)c1C (stereo unspecified)	3.7
COc1ccc(C#Cc2ccc3c(c2)[C@H]2[C@H](CCN2S(=O)(=O)c2ccccc2C)[C@H](CO)N3C)cc1	-49.9
Cc1cnc(C)c(N2C[C@@H]3[C@H](C2)[C@H]2CC[C@@H]3O2)n1	-3.6
c1cncc(CN(Cc2ccc3ncccc3c2)Cc2cccs2)c1	-0.3
CCn1c(C2CCCN(C(=O)c3cnnn3-c3ccccc3)C2)nn(C)c1=O (stereo unspecified)	-62.6
CC(=O)N1CC2(CCN(C(=O)C3CCNCC3)CC2)CC1C(=O)O (stereo unspecified)	-40.5
O=C(NC1CC1)c1cc2n(n1)CCCN(C(=O)c1n[nH]c3ccccc13)C2	-7.9
Cc1cccnc1CC(C)N(C)C(=O)c1ccc2cccnc2n1 (stereo unspecified)	12.1
CC1Cc2cc(CNCc3cc(-c4ccc(F)cc4)c[nH]c3=O)ccc2O1 (stereo unspecified)	i
Cc1oc(-c2ccc(Cl)cc2)nc1CSc1nc2c(=O)[nH]cnc2n1-c1ccccc1	-27.5
COc1ccc(-c2[nH]ncc2CN2CCN(C)CC2)cc1	62.1

A different layout for some results above:
O=C(NC1CC1)c1cc2n(n1)CCCN(C(=O)c1n[nH]c3ccccc13)C2
  Tg IFNy HTS = -7.9
Cc1cccnc1CC(C)N(C)C(=O)c1ccc2cccnc2n1 (stereo unspecified)
  Tg IFNy HTS = 12.1
CC1Cc2cc(CNCc3cc(-c4ccc(F)cc4)c[nH]c3=O)ccc2O1 (stereo unspecified)
  Tg IFNy HTS = i
Cc1oc(-c2ccc(Cl)cc2)nc1CSc1nc2c(=O)[nH]cnc2n1-c1ccccc1
  Tg IFNy HTS = -27.5

The list goes on.
structure	Tg IFNy HTS
CC(C)C(=O)c1cc(-c2cn(C(C)C)cn2)n2ccccc12	-14.3
CCc1nc(C)c(C(=O)NCCc2nc(C)c(C)s2)o1	-7.3
COCCn1ccnc1C1CC(=O)Nc2c1c(C1CC1)nn2C (stereo unspecified)	-4.7
Fc1ccc(NC(=S)NCCC2=CCCCC2)cc1	43.1
Cc1nc(C(C)NC(=O)CSc2ccncc2)n[nH]1 (stereo unspecified)	-1.9
O=C(CNC(=O)OCc1ccccc1)NCCc1cccs1	28.2
Cc1ccc(-c2nc(CN(c3ccccc3)S(=O)(=O)c3cccs3)c(C)o2)cc1	-32.2
CC(C)N1CC[C@H]2OC[C@H](C(=O)NCCc3cccs3)C[C@H]2C1	-2.7
CC(C)Nc1cc(N2CCN(Cc3ccnc(C(C)C)n3)CC2)ncn1	0.6
CCN1C[C@]23CN(C(=O)COc4ccc(C)cc4)C[C@@H](C[C@H]2S1(=O)=O)O3	6.4
Cc1cccc(C(C(=O)N2CCN(C)C3(CCN(C)CC3)C2)N(C)C)c1 (stereo unspecified)	-6.1
O=S(=O)(c1cccc(C(F)(F)F)c1)N1CCN(CCc2ccccc2)CC1	45.3
Cc1ccc(N=Nc2c(-c3ccccc3)[nH]n(C(N)=S)c2=O)cc1	-105.0*
Cc1cc(-c2cncnc2C2CCCN(C(=O)CCn3c(=O)oc4ccccc43)C2)on1 (stereo unspecified)	-45.9
